CSC inhib: blocks cancer stem cells; cancer stem cell-like cells viability, luminescence; inhibition, % at 7.5 µM; 300,000 compounds, 1.1% hits;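 active = mean at 75% or more and at least half the replicates too; tested in HMLE shEcad cells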;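 also: 0% = median of negative and 100% = median of positive control wells; the first replicate is given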
PABP FP inh: PABP-poly(A) binding inhibition; P11940; PABP-poly(A) RNA binding, fluorescence polarization; inhibition, % at 35 µM; 290,000 compounds, 1% hits; AID 2014;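 active = 50% or more with normal probe brightness, or confirmed in later tests; about a fifth of its hits are not listed in these tables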;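 also: calls also rest on retests at 20 µM and on dose response follow-up; controls were probe without protein and protein plus probe with vehicle; some compounds called inactive have numbers as strong as hits; many hits fall short of the cut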
MT1-MMP act inh: blocks activation of human MT1-MMP. GFP/RFP ratio change, % at 20 µM. 360,000 compounds, 0.061% hits. AID 651647. P50281. HT1080 RFP-PRO-GFP cells, GFP/RFP ratio fluorescence, overnight; percent of plate control window, DMSO zero;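 active = GFP/RFP ratio change of at least 30% with cell ATP level not reduced by more than half and red fluorescence within 50% of control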; also: strong numbers were not always called active
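Material – HT1080 RFP-PRO-GFP cells · Control set – DMSO wells and RFP-L50D-GFP cells · Incubation – overnight cell settling, then overnight compound exposure, 37 °C, 5% CO2 · Compound dosing – single-point 20 µM compound, 1% DMSO · Read-out – GFP/RFP fluorescence ratio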
eIF4H FP inh: inhibitors of RNA binding by human eIF4H. Q15056. eIF4H fluorescence polarization binding assay. inhibition, % at 35 µM. 290,000 compounds, 0.94% hits;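 active = 50% or more with normal probe brightness, or confirmed in later tests; about a fifth of its hits are not listed in these tables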;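 also: calls also rest on retests at 20 µM and on dose response follow-up; 0% = protein and probe with vehicle and 100% = probe without protein; strong numbers were not always called active; many hits fall short of the cut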
HIV Env fusion: HIV envelope-mediated fusion inhibition. AID 651610. HeLa-JRFL Env/CEM21 cell fusion, luciferase. inhibition, % at 12.3 µM. 360,000 compounds, 1.1% hits;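 active = mean replicate inhibition score of at least 50 and every replicate individually at or above 50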;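 also: 0% = plate neutral controls and 100% = maraviroc near 300 nM; one replicate is shown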
UUG fidelity: alters start codon recognition fidelity in yeast. S. cerevisiae UUG-firefly luciferase reporter, luminescence/redox ratio. activity score, % at 18.7 µM. 350,000 compounds, 0.13% hits. AID 602363;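 active = replicate mean at a twofold rise or more, about +100% in these data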;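 also: firefly luciferase made from a UUG start codon reports start codon fidelity; reporter light over untreated wells divided by growth signal over untreated wells; some hits fall short of that in this replicate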
Rce1 inh: inhibitors of yeast Ras-converting enzyme | Q03530 | yeast membranes, quenched prenylated peptide cleavage fluorescence | calls only | 290,000 compounds, 0.27% hits | AID 2563;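 active = fall in fluorescence gain of 50% or more versus controls, with final raw signal at or below 3038400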;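 also: plate controls were neutral control wells for no effect and wells lacking membranes for full effect; tested at 10 µM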
Target sequence (Q03530 whole entry, looked up): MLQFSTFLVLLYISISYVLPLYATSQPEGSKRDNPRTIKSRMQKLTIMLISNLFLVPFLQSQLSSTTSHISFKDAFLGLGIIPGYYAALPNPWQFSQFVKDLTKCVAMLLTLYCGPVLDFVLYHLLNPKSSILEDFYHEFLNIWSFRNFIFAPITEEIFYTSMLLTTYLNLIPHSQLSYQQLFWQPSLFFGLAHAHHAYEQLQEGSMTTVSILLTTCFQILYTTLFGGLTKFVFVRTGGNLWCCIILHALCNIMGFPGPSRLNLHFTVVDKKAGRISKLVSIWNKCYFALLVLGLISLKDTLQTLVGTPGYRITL
eIF4H FP inh retest: second read-out of eIF4H FP inh, no call of its own (marks repeat the call); inhibition, %; compound at 20 µM; confirmation average;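 mean of two retest wells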
PABP FP inh retest: recorded beside PABP FP inh, whose call it bears; inhibition, %; compound at 20 µM; confirmation repeats;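 mean of two retest wells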
MT1-MMP act inh RFP: further read-out of MT1-MMP act inh, marked with its call; RFP signal change, %; measured here: RFP expression control read;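 0 = vehicle wells; hits needed this value within 50% of zero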
An asterisk follows results filed as active; i = inactive; x = not tested or not shown; & = joins results of further samples; [ ] = remark or other dose. Not all compounds are listed (hit frequency here may not be typical).

SMILES	CSC inhib	PABP FP inh	MT1-MMP act inh	MT1-MMP act inh RFP	eIF4H FP inh	HIV Env fusion	UUG fidelity	Rce1 inh	others
CN(C(=O)c1ccco1)c1nnc(-c2ccc(F)cc2)s1	-18	6	2	-2	-14	-80	7	i
COc1ccc(-c2ccc3c(c2)S(=O)(=O)c2cccc(C(=O)NCCOc4ccccc4)c2C3=O)cc1OC	-4	x	-35	-4	x	x	-9	x
COc1nc(Oc2ccc(=O)[nH]n2)nc(N2CCOCC2)n1	-5	2	4	0	-13	x	x	i
CC(C)(C)OC(=O)NCCc1n[nH]c(=S)o1	-4	-9	2	1	5	8	-8	i
Cc1ccc(N(CC(=O)Nc2cccc(N(C)S(C)(=O)=O)c2)S(C)(=O)=O)cc1	3	3	3	-9	-16	x	-9	i
Cc1ccc(C(C(=O)NC(C)(C)C)N(C(=O)c2csnn2)C2CC2)cc1 (centres undefined)	-1	52	3	6	-5	-106	-15	i	eIF4H FP inh retest=1;PABP FP inh retest=3
CN(C)S(=O)(=O)N1CCN(c2ccccc2)CC1	-4	-1	-1	0	-10	x	-3	i
O=C(O)COCC(=O)Nc1ccc(Oc2ncnc3cc(Cl)ccc23)nc1	-11	1	2	4	-7	-10	-26	i
O=c1c2ccccc2c(/C=N/n2cnnc2)c(O)n1-c1ccccc1F	7	6	-2	7	1	-8	-24	i
COc1ccc(-c2nc(NC(=O)CCNC(=O)c3ccco3)sc2C)cc1	-8	-9	-1	-11	-7	14	-1	i
O=C(c1coc(=O)c(Br)c1)N1CCC(C(O)(c2ccccc2)c2ccccc2)CC1	-1	6	-15	-7	6	23	x	i
COc1cccc(C(=O)N/N=c2\oc3c(OC)cccc3cc2C(=O)NCc2ccccc2)c1	-10	-2	6	4	9	-2	x	i
C=CCN(C(=O)c1csnn1)C(C(=O)NCc1ccccc1)c1cccs1 (centres undefined)	-18	-3	-5	-1	-9	5	1	i
O=C(NCc1ccco1)c1ccc(Cn2c(=O)c3ccccc3n(Cc3ccc(Cl)cc3)c2=O)cc1	11	-7	-6	-5	1	119*	-18	x
Cc1ccc(C(=O)N2CCCCCC2)cc1Br	-27	0	0	-1	2	-35	-6	i
COc1cccc(Nc2nc(N)c([N+](=O)[O-])c(NCc3ccco3)n2)c1	10	0	-4	-17	-9	56*	-16	i
CSc1ccccc1NC(=O)CSCc1ccc(C)cc1	18	-2	-6	-1	5	x	-4	i
O=C(O)C1CCC(CNS(=O)(=O)c2ccc(Cl)cc2)CC1 (centres undefined)	6	9	3	5	3	-5	4	i
CCCC(C(=O)c1ccccc1)n1cncn1 (centres undefined)	-23	-1	2	5	-5	-100	-13	i
CN(CC(=O)Nc1cccc(F)c1)C(=O)c1ccc(COc2ccccc2)o1	x	x	-7	-3	x	x	-17	i

19 compounds from above, sorted by molar mass, largest number first.
SMILES	CSC inhib	PABP FP inh	MT1-MMP act inh	MT1-MMP act inh RFP	eIF4H FP inh	HIV Env fusion	UUG fidelity	Rce1 inh	others
COc1ccc(-c2ccc3c(c2)S(=O)(=O)c2cccc(C(=O)NCCOc4ccccc4)c2C3=O)cc1OC	-4	x	-35	-4	x	x	-9	x
O=C(NCc1ccco1)c1ccc(Cn2c(=O)c3ccccc3n(Cc3ccc(Cl)cc3)c2=O)cc1	11	-7	-6	-5	1	119*	-18	x
O=C(c1coc(=O)c(Br)c1)N1CCC(C(O)(c2ccccc2)c2ccccc2)CC1	-1	6	-15	-7	6	23	x	i
COc1cccc(C(=O)N/N=c2\oc3c(OC)cccc3cc2C(=O)NCc2ccccc2)c1	-10	-2	6	4	9	-2	x	i
Cc1ccc(N(CC(=O)Nc2cccc(N(C)S(C)(=O)=O)c2)S(C)(=O)=O)cc1	3	3	3	-9	-16	x	-9	i
C=CCN(C(=O)c1csnn1)C(C(=O)NCc1ccccc1)c1cccs1 (centres undefined)	-18	-3	-5	-1	-9	5	1	i
O=C(O)COCC(=O)Nc1ccc(Oc2ncnc3cc(Cl)ccc23)nc1	-11	1	2	4	-7	-10	-26	i
COc1ccc(-c2nc(NC(=O)CCNC(=O)c3ccco3)sc2C)cc1	-8	-9	-1	-11	-7	14	-1	i
CN(CC(=O)Nc1cccc(F)c1)C(=O)c1ccc(COc2ccccc2)o1	x	x	-7	-3	x	x	-17	i
Cc1ccc(C(C(=O)NC(C)(C)C)N(C(=O)c2csnn2)C2CC2)cc1 (centres undefined)	-1	52	3	6	-5	-106	-15	i	eIF4H FP inh retest=1;PABP FP inh retest=3
COc1cccc(Nc2nc(N)c([N+](=O)[O-])c(NCc3ccco3)n2)c1	10	0	-4	-17	-9	56*	-16	i
O=c1c2ccccc2c(/C=N/n2cnnc2)c(O)n1-c1ccccc1F	7	6	-2	7	1	-8	-24	i
O=C(O)C1CCC(CNS(=O)(=O)c2ccc(Cl)cc2)CC1 (centres undefined)	6	9	3	5	3	-5	4	i
CSc1ccccc1NC(=O)CSCc1ccc(C)cc1	18	-2	-6	-1	5	x	-4	i
COc1nc(Oc2ccc(=O)[nH]n2)nc(N2CCOCC2)n1	-5	2	4	0	-13	x	x	i
CN(C(=O)c1ccco1)c1nnc(-c2ccc(F)cc2)s1	-18	6	2	-2	-14	-80	7	i
Cc1ccc(C(=O)N2CCCCCC2)cc1Br	-27	0	0	-1	2	-35	-6	i
CN(C)S(=O)(=O)N1CCN(c2ccccc2)CC1	-4	-1	-1	0	-10	x	-3	i
CC(C)(C)OC(=O)NCCc1n[nH]c(=S)o1	-4	-9	2	1	5	8	-8	i

(listing goes on)
SMILES	CSC inhib	PABP FP inh	MT1-MMP act inh	MT1-MMP act inh RFP	eIF4H FP inh	HIV Env fusion	UUG fidelity	Rce1 inh	others
CCS(=O)(=O)N1CCN(C(=O)c2cccnc2)CC1	-10	7	3	6	-9	-13	-7	i
CC(=O)Nc1ccc(S(=O)(=O)Nn2cnnc2)cc1	x	-2	3	0	-1	-1	x	i
COc1ccc2c(c1)nc(N)n2Cc1ccccc1	-18	-2	12	-2	1	45	-9	i
Cc1ccc(-c2nnc(N3CCN(C(=O)COc4ccccc4)CC3)c3ccccc23)cc1	-1	-13	7	-16	-7	68*	-10	i
CCn1c(NCc2cc(OC)c(OC)c(OC)c2)nc2ccccc21	-16	-5	3	-2	8	-11	-9	i
COC(=O)C1=C(C(=O)OC)[C@@H]2N(C)c3ccc(OC)cc3[C@@]23C[C@@H](C(=O)OC)N(S(=O)(=O)c2ccc([N+](=O)[O-])cc2)C3=N1	8	-6	-2	-6	-4	-3	-2	i
Cc1cccc(C(=O)NC(NC(=S)Nc2ccc(S(N)(=O)=O)cc2)C(Cl)(Cl)Cl)c1 (centres undefined)	x	-1	11	6	-3	x	x	i
Fc1ccc(C2=NN(c3ccccc3)C(c3ccco3)C2)cc1 (centres undefined)	-8	0	-4	-4	10	14	x	i
Cc1cccc(CNC(=O)C2CCC(=O)N(CC3CCCCC3)C2)c1 (centres undefined)	x	x	0	1	x	19	7	x
COc1cc(NC(=O)CSCC(=O)N(C)C2CCCCC2)cc(OC)c1	-1	x	-2	3	x	x	-5	x
CCn1c(=NC(=O)CSCC(=O)Nc2nccs2)sc2ccccc21	-16	-6	0	-3	0	x	2	i
CC(=O)Nc1ccc(NC(=O)COC(=O)c2ccc(S(=O)(=O)NCc3ccco3)cc2)cc1	-10	x	3	2	x	-25	-16	x
CC1CCN(CCCCOc2ccc(Br)cc2)CC1	-16	2	5	6	8	17	x	i
Nc1nc(COc2ccccc2C=O)nc(Nc2ccccc2)n1	18	8	1	1	-3	-13	x	i
O=C(Cn1c2c(c(-c3ccccc3Cl)cc1=O)CCC2)NCC1CCCO1 (centres undefined)	0	3	-3	-5	3	19	x	i
CNC(=S)Nc1ccc(Br)cc1	-11	4	1	6	6	x	x	i
Cc1occc1C(=O)NNC(=O)COc1ccc(Br)cc1Br	1	-3	3	3	0	20	2	i
CCOc1cc2c(cc1OCC)C(c1ccc(OC)cc1)N(c1ccccc1)C(=O)C2 (centres undefined)	7	15	4	4	-4	37	-12	i
Cn1c(N)c(C#N)c2c(c1=S)COC(C)(C)C2	3	20	2	5	8	x	-24	i
C#C[C@]1(OC(C)=O)CCC2C3CCC4=CC(=O)CC[C@@H]4C3CC[C@@]21C (some centres undefined)	-10	-2	4	1	1	4	0	i

Three compounds from above, sorted by molecular weight, low to high:
SMILES	CSC inhib	PABP FP inh	MT1-MMP act inh	MT1-MMP act inh RFP	eIF4H FP inh	HIV Env fusion	UUG fidelity	Rce1 inh	others
COc1ccc2c(c1)nc(N)n2Cc1ccccc1	-18	-2	12	-2	1	45	-9	i
Fc1ccc(C2=NN(c3ccccc3)C(c3ccco3)C2)cc1 (centres undefined)	-8	0	-4	-4	10	14	x	i
Cc1ccc(-c2nnc(N3CCN(C(=O)COc4ccccc4)CC3)c3ccccc23)cc1	-1	-13	7	-16	-7	68*	-10	i

Going on with the list.
SMILES	CSC inhib	PABP FP inh	MT1-MMP act inh	MT1-MMP act inh RFP	eIF4H FP inh	HIV Env fusion	UUG fidelity	Rce1 inh	others
CCCN1C(=O)c2ccc(C(=O)Nc3ccc4c(c3)OCO4)cc2C1=O	16	-1	-2	-3	0	-8	-20	i
Cn1c(SCc2ccc(C#N)cc2Cl)nc2ccccc21	12	5	-5	4	-2	x	-12	i
O=C(CN(c1ccccc1)S(=O)(=O)c1ccccc1[N+](=O)[O-])NN=C1CCCCCCC1	-11	-17	-4	0	-5	10	-10	i
C[C@@H]1CN([C@H](C)CO)C(=O)c2cc(Br)cnc2O[C@@H]1CN(C)C(=O)Cc1ccccc1	x	x	-1	4	x	0[16.7 µM]	-12&-10	x
Cc1ccc(SC2=C(Sc3ccc(C)cc3)C(=O)c3ccccc3C2=O)cc1	78*	12	-32	19	6	17	-9	i
CC(=O)C1=C(O)C(=O)N(c2ccc(Br)cc2)C1c1ccc(Cl)cc1 (centres undefined)	3	-8	12	-10	-11	8	-4	i
CC(C)(C)NC(=O)NC(=O)CSc1cccc(C(F)(F)F)c1	x	-2	1	2	23	-3	x	i
O=C(CCC(=O)N1CCOc2ccc(Cl)cc21)NCCCN1CCOCC1	-3	-14	-5	1	-10	-16	-11	i
C[C@H](CO)N1C[C@H](C)[C@@H](CN(C)S(=O)(=O)c2ccccc2C#N)OCc2cnnn2CCCC1=O	x	x	-3	-2	x	5	-3	x
Cc1ccc(-c2nc(CSCC(=O)NC3CCN(Cc4ccccc4)CC3)c(C)o2)cc1	10	-4	2	-14	-7	-28	21	i
COc1cc(/C=C2/SC(=S)N(C)C2=O)ccc1OC(=O)c1ccco1	2	-3	-17	64	-14	-8	x	x
O=C(CN1CCNCC1)Nc1ccccc1Cl	-2	2	3	1	2	-3	3	i
Oc1nc(Nc2ccc(Cl)cc2Cl)sc1/C=C1\C=Nc2ccccc21	0	-6	0	16	6	-12	x	i
Cc1csc(SCc2nnc(-c3ccccc3Br)o2)n1	-16	0	-1	0	-3	x	-21	i
CCOc1cc(C#N)c(NC(=O)Cn2nnc3ccccc32)cc1OCC	12	2	1	2	3	-23	-20	i
